Source: PubChem BioAssay
Calb biofilm kill: mixture kills Candida albicans biofilm cells; AID 1242; inhibition, % at 7.6 µM; hit rate 0.02% among 120,000; C. albicans biofilm persisters + clotrimazole, fluorescence viability; primary screen in compound mixtures of four per well;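 active = inhibition above 30.3% in the primary screen of four-compound pools, then above 30% when the compound was retested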;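 note: compounds exposed to preformed 24 h biofilms for 48 h; the number belongs to the whole pool; some results filed as inactive read as strong as hits; inactives centre near 12; 0% = biofilm with clotrimazole alone and 100% = kill control; retested singly at about 60 µM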
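Incubation: 24 h biofilm formation, then 48 h compound exposure, 37 °C | Material: C. albicans biofilms | Buffer or medium: RPMI/MOPS medium, pH 7.0 | Measured by: 2-h Alamar Blue fluorescence, 535/590 nm excitation/emission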
Active calls of the source: *. Some of the compounds tested. The share of hits here may be higher or lower than overall.

Screening CCn1c(/C=N/NC(=O)c2ccc(OC)cc2)nc2ccccc21 returned Calb biofilm kill 9.1.
`CCC(C)[C@H]1CNC(=S)N1CCC12CC3CC(CC(C3)C1)C2` (stereo partly drawn) gave Calb biofilm kill 12.8.
Cc1cc(NC(=O)CSCc2ccc([N+](=O)[O-])cc2)no1 was read as Calb biofilm kill 8.7.
For CN(C)c1ccc(C(CC(=O)O)C(=O)O)cc1 (stereo not drawn) the results were Calb biofilm kill 14.9.
For FC(F)(F)c1ccc(CN2C[C@@H]3C(c4ccc(Cl)nc4)C4(c5cccnc5)CC3(C4)[C@H]2c2ccccc2)cc1 (stereo partly drawn) the results were Calb biofilm kill 22.2.
For Cc1nc(N2CCCCC2C)c2c(C)c(C(=O)Nc3ccccc3C(F)(F)F)sc2n1 (stereo not drawn) the results were Calb biofilm kill 9.7.
`CN(C)CCN(Cc1ccco1)C(=O)c1cc2c(Cl)nc3ccccc3c2s1` gave Calb biofilm kill 6.4.
For CC(C)COc1ccc(C(=O)Nc2ccccc2[N+](=O)[O-])cc1 the results were Calb biofilm kill 17.4.
C=C(C)CC(c1ccccc1)N(C(C)=O)c1ccco1 (stereo not drawn) was read as Calb biofilm kill 17.4.
CC1=C(C(=O)OCc2ccccc2)C(c2cccs2)NC(=O)N1CCCC(=O)O (stereo not drawn) was read as Calb biofilm kill 16.9.
For Cc1ccc(C)c(S(=O)(=O)N2CC(=O)N(CCc3ccccc3)C(=O)C2)c1 the results were Calb biofilm kill 7.3.
Screening O=C(CC1SCCNC1=O)Nc1ccccc1Cl (stereo not drawn) returned Calb biofilm kill 12.4.
Screening Cc1ccc(CNC(=O)C(=O)Nc2nccs2)cc1 returned Calb biofilm kill 18.1.
`N#CC(c1ccc(Cl)nn1)c1c(F)cccc1Cl` (stereo not drawn) gave Calb biofilm kill 18.8.
`CCCOc1ccc(C(=O)NCC(c2ccco2)N(C)C)cc1OC` (stereo not drawn) gave Calb biofilm kill 19.2.
For CCCOc1ccc(N2C(=O)CC(NCc3cccs3)C2=O)cc1 (stereo not drawn) the results were Calb biofilm kill 7.5.
For N=C1S/C(=C\c2ccc(O)cc2)C(=O)N1c1ccc(F)cc1 the results were Calb biofilm kill 11.3.
`CC(=O)Nc1ccc(CN2CCCC(CO)(Cc3cccc(Cl)c3)C2)cc1` (stereo not drawn) gave Calb biofilm kill 31.6.
`O=Cc1c(SCCO)nc2ccccn2c1=O` gave Calb biofilm kill 6.9.
CCOC(=O)N1CCN(C(=O)COc2cc(C)c(Cl)c(C)c2)CC1 was read as Calb biofilm kill 22.1.
`N/C(=N\OC(=O)CCCc1ccccc1)c1cccc([N+](=O)[O-])c1` gave Calb biofilm kill 0.4.
For COc1cc(N2CCCC2)c(OC)cc1/C=C(/C#N)c1ccc(F)cc1 the results were Calb biofilm kill 8.4.
For COc1cc(C2NC(=O)NC(c3ccccc3)=C2C(C)=O)cc(Cl)c1OCC(=O)O (stereo not drawn) the results were Calb biofilm kill 13.9.
Screening CCOC(=O)N1CCN(Cc2c(O)ccc3ccccc23)CC1 returned Calb biofilm kill 20.5.
Screening O=C(O)CC1(CC(=O)N2CCN(CCO)CC2)CCCC1 returned Calb biofilm kill 13.0.
Screening OC(CN1CCN(Cc2ccccc2)CC1)c1ccccc1 (stereo not drawn) returned Calb biofilm kill 9.1.
Screening O=C(OCc1ccccc1)c1cccnc1Cl returned Calb biofilm kill 18.2.
For Fc1ccc(CN2CCSCC2)cc1Br the results were Calb biofilm kill 12.0.
Screening CC(C)C(=O)Nc1ccc(C(=O)NNC(=O)c2cccs2)cc1 returned Calb biofilm kill 3.9.
CCOc1cc(/C=N/NC(=O)CSc2nncn2C)ccc1OCc1ccccc1 was read as Calb biofilm kill -5.8.
Screening Cc1nn(C)cc1-c1cc(C(=O)O)c2ccccc2n1 returned Calb biofilm kill 16.2.
Screening N#Cc1ccc(/C=C/C(=O)c2ccccc2)cc1 returned Calb biofilm kill 19.2.
Screening O=c1cc(CN2CCN(S(=O)(=O)/C=C/c3ccccc3)CC2)c2ccc(O)cc2o1 returned Calb biofilm kill 21.4.
For COc1ccc(C(=O)N(c2ccc(OC)cc2)S(=O)(=O)c2cccs2)cc1 the results were Calb biofilm kill 6.3.
`COc1cccc(CNn2cnnc2)c1O` gave Calb biofilm kill 8.5.
`COC(=O)c1ccc(NC(=O)CCN2CCN(Cc3ccccc3)CC2)cc1` gave Calb biofilm kill 15.0.

Grouped by structure, the compounds so far with an aryl thioether with sulfur outside any ring
`O=Cc1c(SCCO)nc2ccccn2c1=O` gave Calb biofilm kill 6.9.
CCOc1cc(/C=N/NC(=O)CSc2nncn2C)ccc1OCc1ccccc1 was read as Calb biofilm kill -5.8.

The listing continues:
`CCOC(=O)c1sc(NC(=O)CSc2nc3c(c(=O)n2-c2ccc(C)cc2)SCC3)c(C(=O)OCC)c1C` gave Calb biofilm kill 0.9.
For NNC(=O)c1nc(Cl)c(Cl)c(N)c1Cl the results were Calb biofilm kill 25.7.
For CN(C)c1ccc(/C=C/C(=O)c2ccc3c(c2)OCCO3)cc1[N+](=O)[O-] the results were Calb biofilm kill 12.5.
Screening CCOC(=O)c1c(C)c(C(=O)N2CCN(c3ccc(F)cc3)CC2)c(C)n1C returned Calb biofilm kill 1.3.
Screening NS(=O)(=O)c1ccc(CCNCC(=O)NC2CC2)cc1 returned Calb biofilm kill 22.5.
For COc1ccc(C)cc1C(=O)CCC(=O)NC1CCCCC1 the results were Calb biofilm kill -6.3.
For CCO[C@@H]1OC(C(=O)N2CCOCC2)=C[C@H](c2ccc(Br)cc2)[C@H]1CCCO the results were Calb biofilm kill 12.8.
For CCCNc1c(NC(C)=O)c(=O)oc2ccccc12 the results were Calb biofilm kill 9.7.
O=C(NCc1ccc2c(c1)OCO2)Nc1ccc2ccccc2c1 was read as Calb biofilm kill 17.3.
For COc1ccc(/C=C/C(=O)Nc2cc(C(F)(F)F)ccc2Cl)cc1OC the results were Calb biofilm kill 13.7.
For CSc1nc(N2CCOCC2)cc(N2CCOCC2)n1 the results were Calb biofilm kill -3.4.
`CC(C)Cc1nc2sc3c(=O)[nH]cnc3c2c2c1CCC2` gave Calb biofilm kill 0.4.
`O=c1c2ccccc2cnn1Cc1n[nH]c(=S)n1-c1ccccc1F` gave Calb biofilm kill 22.8.
`Cc1ccc(NC(=O)CSc2nnc(N)s2)c([N+](=O)[O-])c1` gave Calb biofilm kill 12.1.
`N#CCCn1cc(C(=O)Nc2ccc([N+](=O)[O-])cc2)c(-c2cccs2)n1` gave Calb biofilm kill 6.1.
Screening CC(=O)Nc1cccc(-c2nnc3c4ccccc4c(C)nn23)c1 returned Calb biofilm kill 7.2.
For Cc1ccc2nc(C(=O)N3CCc4c([nH]c5ccccc45)C3c3ccccn3)cn2c1 (stereo not drawn) the results were Calb biofilm kill 14.4.
CCNC(=O)NC(=O)C(C)OC(=O)CCS(=O)(=O)c1ccc(C)cc1 (stereo not drawn) was read as Calb biofilm kill 6.0.
Screening O=C(CSc1ncccc1C(=O)O)NC1CCCCCCC1 returned Calb biofilm kill 7.1.
Screening Cc1cc(C(=O)COC(=O)c2ccc(CO)cc2)c(C)n1CC1COc2ccccc2O1 (stereo not drawn) returned Calb biofilm kill 13.6.
For CCc1cc(CNC(=O)CC2C(=O)NCCN2CC2CCCCC2)on1 (stereo not drawn) the results were Calb biofilm kill 10.3.
O=C1NC(=O)C(=C2CCCCCC2)S1 was read as Calb biofilm kill 1.4.
CCOC(=O)C(=CNc1ccc2c(c1)c1ccccc1n2CC)C(=O)OCC was read as Calb biofilm kill 20.0.
Screening COc1cccc(CN2CCN(C(=S)NCc3ccc(Cl)cc3)CC2)c1 returned Calb biofilm kill 12.5.

Compounds above that have an NH in an aromatic ring, in the order listed:
`CC(C)Cc1nc2sc3c(=O)[nH]cnc3c2c2c1CCC2` gave Calb biofilm kill 0.4.
`O=c1c2ccccc2cnn1Cc1n[nH]c(=S)n1-c1ccccc1F` gave Calb biofilm kill 22.8.
For Cc1ccc2nc(C(=O)N3CCc4c([nH]c5ccccc45)C3c3ccccn3)cn2c1 (stereo not drawn) the results were Calb biofilm kill 14.4.

More structures follow:
O=C(OCc1ccc([N+](=O)[O-])cc1)C1CCN(S(=O)(=O)c2ccccc2)CC1 was read as Calb biofilm kill 18.9.
For Oc1c(Br)cc(Br)cc1C=NCc1ccc(F)cc1 the results were Calb biofilm kill 4.3.
For CCOC(=O)c1c(N2C(=O)CC(Sc3ccccc3C(=O)O)C2=O)sc(C)c1C (stereo not drawn) the results were Calb biofilm kill 10.1.
Screening CCN(CC(=O)Nc1cc(Cl)ccc1C)C(=O)COc1ccccc1F returned Calb biofilm kill 10.1.
`COc1ccc(F)cc1CN1CCN(c2ncnc3scc(-c4ccccc4)c23)CC1` gave Calb biofilm kill 19.9.
Screening CCC(=O)Nc1cc2nn(-c3ccc(C)cc3)nc2cc1C returned Calb biofilm kill 12.1.
CC(C)CNC(=O)/C=C/c1cccs1 was read as Calb biofilm kill 23.5.
Screening CN1CCN(C(c2cccs2)c2nnnn2Cc2ccc(F)cc2)CC1 (stereo not drawn) returned Calb biofilm kill 3.9.
For Cc1[nH]c2ccccc2c1C(=O)COC(=O)c1c(-c2ccccc2)noc1C the results were Calb biofilm kill 13.5.
Screening COCCCn1c(=S)[nH]c2c(sc3ccccc32)c1=O returned Calb biofilm kill -1.8.
Screening Cc1ccc(Nc2nc(-c3ccc(O)cc3O)cs2)nc1 returned Calb biofilm kill 22.6.
Screening Cc1c(C(=O)c2ccc(Cl)cc2[N+](=O)[O-])c2ccccn2c1CCC#N returned Calb biofilm kill 9.2.
For CCc1n(CC(O)COCC2CC=CCC2)c2ccccc2[n+]1C (stereo not drawn) the results were Calb biofilm kill 16.5.
`COc1ccc(N/C(=N/c2nc(C)cc(C)n2)NC(=O)c2ccccc2)cc1` gave Calb biofilm kill 14.3.
Screening CCCCN(C)CCCNC(=O)c1cn(CC)c2ccc(S(=O)(=O)N3CCc4ccccc4C3)cc2c1=O returned Calb biofilm kill 12.7.
Screening CCOCCCNC1=C(Cl)C(=O)c2ccccc2C1=O returned Calb biofilm kill 22.6.
CC(=O)C1=C(C)NC(SCC(=O)Nc2nccs2)=C(C#N)C1c1ccccc1Cl (stereo not drawn) was read as Calb biofilm kill 12.3.
Screening CCOC(=O)Cn1nnnc1C returned Calb biofilm kill 19.7.
For N=C(N)CCCOc1ccccc1-c1ccccc1 the results were Calb biofilm kill 20.7.
`CCCc1c(O)nc(SCC(=O)NCc2ccco2)[nH]c1=O` gave Calb biofilm kill 12.3.
`O=C(CSc1ncn[nH]1)N1CCCCC1` gave Calb biofilm kill 7.4.
Cc1nn(-c2ccccc2)c(C)c1/C=N/NC(=O)c1cc(-c2cccc3ccccc23)n[nH]1 was read as Calb biofilm kill 10.1.
For O=C(N/N=C/c1ccccn1)c1cccc(S(=O)(=O)Nc2ccccc2Cl)c1 the results were Calb biofilm kill 6.4.
Screening CC(C)c1ccc(/C=C/C(=O)N2CCc3ccccc3C2)cc1 returned Calb biofilm kill -0.8.
COCCOC(=O)C1=C(C)NC(=O)NC1c1c(Cl)nc2ccccn2c1=O (stereo not drawn) was read as Calb biofilm kill 15.6.
Screening CN(C)CCOc1ccc2ccccc2c1 returned Calb biofilm kill 14.7.
COc1nc2c(c(-c3cc(Br)cs3)c1C#N)Cc1ccccc1-2 was read as Calb biofilm kill 27.7.
COC(=O)Cn1c(=NC(=O)c2cc(-c3cccs3)nc3ccccc23)sc2cc(S(N)(=O)=O)ccc21 was read as Calb biofilm kill 9.5.
Screening O=C(Cn1nc(C(=O)O)c2ccccc2c1=O)NC12CC3CC(CC(C3)C1)C2 returned Calb biofilm kill 9.9.
`CCOC(=O)C1=C(C)NC2=C(C(=O)CC(C)(C)C2)C1c1ccc(O)c(OCC)c1` (stereo not drawn) gave Calb biofilm kill 56.6.
`Cc1ccc2c(c1)Oc1ccc([N+](=O)[O-])cc1C(=O)N2` gave Calb biofilm kill -6.1.
O=C(Nc1ccccc1Cl)N1C2CCC1CC(O)(c1cccnc1)C2 (stereo not drawn) was read as Calb biofilm kill -7.0.
`N#C/C(=C/c1cn(CC(=O)O)c2ccccc12)C(=O)NCc1ccccc1` gave Calb biofilm kill -13.5.
Screening COc1ccccc1OCCNC(=O)c1cc(SC)ccc1Cl returned Calb biofilm kill 17.9.
Screening Cc1ccc(CNC(=O)c2cccnc2Sc2cccc(Cl)c2)cc1 returned Calb biofilm kill 11.3.
Screening O=C(NN1CCOCC1)c1cc(-c2cccs2)nc2ccccc12 returned Calb biofilm kill 9.9.

Quoted at random: 4 compounds from above, in no set order.
Screening O=C(NN1CCOCC1)c1cc(-c2cccs2)nc2ccccc12 returned Calb biofilm kill 9.9.
`N#C/C(=C/c1cn(CC(=O)O)c2ccccc12)C(=O)NCc1ccccc1` gave Calb biofilm kill -13.5.
O=C(Nc1ccccc1Cl)N1C2CCC1CC(O)(c1cccnc1)C2 (stereo not drawn) was read as Calb biofilm kill -7.0.
Screening O=C(Cn1nc(C(=O)O)c2ccccc2c1=O)NC12CC3CC(CC(C3)C1)C2 returned Calb biofilm kill 9.9.

Continuation:
CC(=O)Nc1ccc(NC(=O)C/C(C)=N/NC(N)=S)cc1 was read as Calb biofilm kill 9.6.
Screening CC(=O)Nc1c(C)cc(S(C)(=O)=O)cc1C returned Calb biofilm kill 3.4.
`O=C1C2CC=CCC2C(=O)N1Cc1ccccc1Cl` (stereo not drawn) gave Calb biofilm kill 6.2.
For Cc1ccc(CCNC(=O)c2cc(C)nn2-c2ccccc2)cc1 the results were Calb biofilm kill 14.2.
Screening COc1cccc(NC2c3ccccc3C(=O)N2Cc2ccccc2Cl)c1 (stereo not drawn) returned Calb biofilm kill 1.0.
